Beta cell apopt = inhibitors of cytokine-induced beta cell apoptosis, primary screen, luminescence; protection from apoptosis, % (test concentration not listed); INS-1E cytokine-induced death, ATP luminescence, 48 h; percent of positive-control rescue, neutral wells zero; 300,000 compounds, 0.8% hits; AID 435005, 2010;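 active = all replicates at 75% or more, or half of them and the mean; inconclusive = half reach 75% but not the mean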;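 also: 0% = cytokine-treated negative control wells and 100% = positive control rescue; higher means more ATP so stronger rescue from cytokine killing; wells of about 40 µL received 100 nL stock; the first replicate is given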
LANA-H2A inh = blockers of LANA interaction with H2A/H2B – biochemical, FP readout, HTS, primary screen; inhibition, % (test concentration not listed); cell-free LANA-H2A/H2B peptide, fluorescence polarization; Protein LANA1 (Human herpesvirus 8 type P (isolate GK18)), Q9QR71; 320,000 compounds, 0.6% hits; AID 2629, 2010; in the data active = inhibition mostly above about 10%, no sharp cut-off; inactive = mostly below about 6.7%;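 also: stock transfer was 7.5 nL into about 10 µL; 0% = median of vehicle wells and 100% = median of positive control wells; one replicate is shown; the record names a cut of 25% in any replicate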
ALR H2O2 inh = inhibitors of human ALR sulfhydryl oxidase, primary screen, biochemical, H2O2 detection, HRP-luminol luminescence, single point. purified ALR, DTT oxidation. inhibition, % (test concentration not listed). 290,000 compounds, 3.8% hits;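 active = mean and each replicate at 75% or more; inconclusive = only one of the two met; inactive = neither met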;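 also: stock transfer was 7.5 nL into about 7.5 µL; 0% = neutral wells and 100% = wells with inactivated enzyme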
Target sequence (P55789 whole entry, looked up): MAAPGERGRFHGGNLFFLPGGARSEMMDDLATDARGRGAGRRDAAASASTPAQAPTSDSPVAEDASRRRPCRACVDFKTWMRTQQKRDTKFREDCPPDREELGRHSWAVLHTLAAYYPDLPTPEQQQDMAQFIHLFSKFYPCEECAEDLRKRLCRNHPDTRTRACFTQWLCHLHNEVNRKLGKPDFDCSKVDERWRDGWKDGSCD
Bfl-1 A1 inh = caspase 3/7 activation in MEF A1-2A-BIM cells, primary screen, A1 inhibitor project, cell-based, luminescence, HTS | caspase activation, % (no concentration beside the values) | 330,000 compounds, 0.066% hits | Caspase-Glo 3/7 luminescence, 3 h; percent of clofoctol response, vehicle zero;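 active = over half of replicate activation scores above 10%, or exactly half above 10 with the replicate mean above 10; inconclusive = replicate mean below 10 yet half the replicates above 10; inactive = over half of replicates below 10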;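 also: wells of about 30 µL received 50 nL stock; many hits fall short of the cut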
T cruzi repl = inhibitors of intracellular T. cruzi growth, primary screen, luminescence, NIH3T3 host cells; T. cruzi beta-gal in NIH3T3, 90 h; inhibition, % (concentration not given with the values); 300,000 compounds, 1.4% hits; AID 1885, 2009;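 active = mean inhibition across valid replicates above about 55%, limit read from the data; inconclusive = mean below that limit but half or more replicates reach it; inactive = mean below it, under half of replicates reach it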;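 also: signal also drops with host cell toxicity which is not excluded here; 0% = plate median of DMSO wells and 100% = zero luminescence signal; higher percent means less beta-gal luminescence so fewer parasites; stock transfer was 50 nL into about 50 µL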
Ecoli rRNA inh = reduced GFP signal of wild-type E. coli, primary screen, bacterial rRNA inhibitor project, GFP/RFP fluorescence, OD600, single point | E. coli WT GFP vs humanized-ribosome RFP mutants, 24 h; hits give low values; DMSO median 0, no signal -100 | GFP signal change (wild-type ribosome), % (no concentration beside the values) | 350,000 compounds, 1.6% hits | AID 720706, 2013;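 active = significant combined selectivity score with lowered wild-type GFP, culture density cut under 30%, mutant RFP and density less affected; inactive = any of these conditions unmet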; also: one replicate is shown; some compounds called inactive have numbers as strong as hits
Calb FLC = C. albicans growth inhibition with fluconazole, primary screen, CaCi-2 strain, Alamar Blue fluorescence; 300,000 compounds, 0.57% hits; C. albicans CaCi-2 (fluconazole-resistant clinical isolate) + fluconazole, 48 h; growth inhibition, % (concentration not given with the values);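 active = most replicates above 75%; inconclusive = exactly half above 75%; inactive = most below 75%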;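 also: all wells also contain fluconazole at 8 µg/ml as a sub-toxic cotreatment; 0% = median of DMSO wells and 100% = median of geldanamycin control wells; wells of about 8 µL received 7.5 nL stock; the first replicate is given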
B2AR ag = beta2AR agonists driving receptor internalization, primary screen, cell-based, FAP fluorogen, flow cytometry; Beta-2 adrenergic receptor (Homo sapiens), P07550; Am2.2-beta2AR cells; reference of the scale not given here; response, % (concentration not given with the values); 340,000 compounds, 0.43% hits; AID 504454, 2011;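 active = response above a set limit, near 3 SD of response in nonfluorescent compounds, cut at about 42% in these data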;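 also: stock transfer was 100 nL into about 11 µL; a reference agonist was the positive control; negative values mostly stem from fluorescent compounds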
Target sequence (P07550 whole entry, looked up): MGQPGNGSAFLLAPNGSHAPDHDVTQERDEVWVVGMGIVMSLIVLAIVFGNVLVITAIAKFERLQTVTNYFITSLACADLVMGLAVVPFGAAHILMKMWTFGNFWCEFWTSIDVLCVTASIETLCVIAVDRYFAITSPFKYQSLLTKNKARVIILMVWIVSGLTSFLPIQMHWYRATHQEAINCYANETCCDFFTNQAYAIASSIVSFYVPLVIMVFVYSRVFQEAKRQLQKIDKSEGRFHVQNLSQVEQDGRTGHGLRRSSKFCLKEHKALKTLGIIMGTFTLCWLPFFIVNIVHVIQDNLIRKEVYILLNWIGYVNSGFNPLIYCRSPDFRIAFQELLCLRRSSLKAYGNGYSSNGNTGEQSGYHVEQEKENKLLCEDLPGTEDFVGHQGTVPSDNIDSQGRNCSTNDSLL
Ecoli rRNA inh OD600 = second read-out of Ecoli rRNA inh, no call of its own (marks repeat the call); OD600 change, %; measured here: OD600 growth;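 optical density of the mix in the first replicate; 0 = DMSO median and -100 = no signal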
Ecoli rRNA inh RFP = also measured in Ecoli rRNA inh; calls as there; RFP signal change, %; measured here: RFP humanized mutant strains;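 first replicate; 0 = DMSO median and -100 = no signal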
* hit, by the source's call; ? = inconclusive; nt = not tested or not shown.

Molecule	Bfl-1 A1 inh	B2AR ag	Ecoli rRNA inh OD600	LANA-H2A inh	Ecoli rRNA inh	Calb FLC	Beta cell apopt	ALR H2O2 inh	T cruzi repl	Ecoli rRNA inh RFP
CCCCC(O)(CCCC)C(=O)NN(C(=O)CCl)c1ccccc1	0.3	5	6	6.6	8	-6	17	46	1	7.6
CC1CC(C)CN(CC(=O)NCCc2ccc(S(N)(=O)=O)cc2)C1 (centres undefined)	-0.2	1	7	-0.7	6	-7	-8	-15	-4	-0.4
COc1ccc(-c2noc(-c3ccco3)n2)cc1OC	-0.8	3	nt	2.1	nt	9	1	-5	-10	nt
Brc1c(-c2ccccc2)nc2n1Cc1ccccc1-2	-3.1	-4	7	1.7	0	17	-3	1	16	4.2
CCCc1ccc(C(=O)NNC(=O)c2ccc(Cl)cc2)cc1	-0.3	-1	nt	-1.2	nt	3	3	-12	14	nt
COc1cc(/C=N/NC(=O)/C(=C\c2ccc([N+](=O)[O-])cc2)NC(=O)c2ccccc2)cc(OC)c1O	-0.3	-2	nt	1.2	nt	30	8	9	3	nt
CC(C)c1ccc(NC2CCCN(C(=O)C3=NN(C)C(=O)CC3)C2)cc1 (centres undefined)	0.5	-8	0	2.6	4	-7	4	98*	-3	-0.6
Cc1ccccc1NC(=O)COc1ccc(Br)cc1C	-1.5	20	8	2.4	9	-17	-3	-5	-5	-4.8
CCC(C)NC(=O)CNC(=O)c1nn(-c2ccc(OC)cc2)c(=O)c2ccccc12 (centres undefined)	-0.2	-4	12	1.2	7	6	-1	-15	-5	1.6
Cc1ccc(C2=NN(C(=O)CCC(=O)O)C(c3cccs3)C2)cc1 (centres undefined)	-0.4	2	-3	2.4	-3	18	1	1	9	6.5
COc1ccc(-n2ncc3c(NCCN4CCOCC4)ncnc32)cc1	-0.8	-1	nt	5.6	nt	-9	nt	18	-2	nt
CC(=O)Nc1ccc(NC(=O)c2ccc(Cn3cc(Cl)cn3)cc2)cc1	1.1	-2	5	0.0	3	-21	3	-2	-3	1.8
COc1ccccc1NC(=O)CCCCC(=O)Nc1ccccc1OC	0.8	-8	9	2.0	14	0	-2	-1	-6	0.5
COc1ccc(CN2CCNC(=O)C2CC(=O)NC2CCOCC2)cc1C (centres undefined)	nt	-4	11	nt	14	-5	nt	nt	2	0.0
Cc1ccc(NC(=O)CN2C(=O)NC(C)(C3CC3)C2=O)cc1S(=O)(=O)N1CCCCC1 (centres undefined)	-0.4	1	-8	-11	0	nt	-3	-3	nt	-1.6

Four records picked at random from the list so far:
Molecule	Bfl-1 A1 inh	B2AR ag	Ecoli rRNA inh OD600	LANA-H2A inh	Ecoli rRNA inh	Calb FLC	Beta cell apopt	ALR H2O2 inh	T cruzi repl	Ecoli rRNA inh RFP
COc1ccc(-c2noc(-c3ccco3)n2)cc1OC	-0.8	3	nt	2.1	nt	9	1	-5	-10	nt
CCCCC(O)(CCCC)C(=O)NN(C(=O)CCl)c1ccccc1	0.3	5	6	6.6	8	-6	17	46	1	7.6
Brc1c(-c2ccccc2)nc2n1Cc1ccccc1-2	-3.1	-4	7	1.7	0	17	-3	1	16	4.2
CCC(C)NC(=O)CNC(=O)c1nn(-c2ccc(OC)cc2)c(=O)c2ccccc12 (centres undefined)	-0.2	-4	12	1.2	7	6	-1	-15	-5	1.6

(more compounds)
Molecule	Bfl-1 A1 inh	B2AR ag	Ecoli rRNA inh OD600	LANA-H2A inh	Ecoli rRNA inh	Calb FLC	Beta cell apopt	ALR H2O2 inh	T cruzi repl	Ecoli rRNA inh RFP
O=C(Nc1ccc(-c2nnn(CC(=O)N3CCN(C(=O)c4ccco4)CC3)n2)cc1)c1ccc(F)cc1	-0.3	3	6	1.3	1	-11	6	-5	12	6.7
CCOC(=O)c1ccccc1NC(=O)c1cccs1	-0.1	10	nt	-2.7	nt	nt	1	-2	nt	nt
C/C(CC(=O)Nc1ccc(Cl)cc1Cl)=N\NC(=O)c1ccco1	0.1	-9	nt	-4.6	nt	?	-7	6	-4	nt
CCc1ccccc1NS(=O)(=O)c1cc2c(cc1C)n(C)c(=O)c(=O)n2C	-0.7	-9	-2	-1.9	-4	-5	-1	-2	-5	-2.2
Cc1cc(C(C)(C)C)oc1C(=O)OCC(=O)NC1CCCCC1	-2.0	-6	3	3.9	-4	15	-3	0	-13	-1.9
CN1CCC[C@@H]1CCNC(=O)c1cccc2c1C(=O)c1ccc(N3CCCC3)cc1S2(=O)=O	0.5	-19	4	-7.4	5	nt	-5	1	nt	5.7
Cc1ccc(NCC(=O)N/N=C\c2cccc(O)c2)cc1	0.0	8	nt	0.2	nt	-3	6	69	-17	nt
O=C(Cc1cccs1)Nc1nnc(COc2ccccc2)s1	1.2	7	nt	4.9	nt	19	-1	nt	-2	nt
COc1ccc(CNC(=S)N/N=C/c2ccc(O)c(OC)c2)cc1	0.3	1	nt	-0.2	nt	?	1	87*	-4	nt
Cc1cccc(NS(=O)(=O)c2cn(C)c(=O)n(C)c2=O)c1C	0.0	-5	-17	-9.7	-8	-4	-3	nt	-10	10
CCc1ccccc1S(=O)(=O)Cc1ccc(C(=O)NCc2cccs2)o1	1.1	-8	-18	-2.0	-23	42	-5	17	19	-0.5
CCN(CCCNC(=O)CNC(=O)c1nn(-c2ccc(OC)c(OC)c2)c(=O)c2ccccc12)c1ccccc1	-2.0	9	11	0.2	17	-4	-1	50	8	2.7
NC(=O)c1ccccc1N/C=C/C(=O)c1ccccc1	-6.2	-5	-5	-0.7	2	2	21	10	1	7.7
CCCc1cc(-c2n[nH]c(=S)n2C(C)c2ccccc2)cs1 (centres undefined)	0.1	-4	nt	4.0	nt	0	-2	15	2	nt
Cc1c(C)n2c(SCC(=O)NCc3ccc4c(c3)OCO4)nnc2[nH]c1=O	0.5	1	0	-7.7	10	-3	-2	2	3	-2.5

Reformatted with each value named: 2 of the compounds above
> CCc1ccccc1S(=O)(=O)Cc1ccc(C(=O)NCc2cccs2)o1
  Bfl-1 A1 inh = 1.1
  B2AR ag = -8
  Ecoli rRNA inh OD600 = -18
  LANA-H2A inh = -2.0
  Ecoli rRNA inh = -23
  Calb FLC = 42
  Beta cell apopt = -5
  ALR H2O2 inh = 17
  T cruzi repl = 19
  Ecoli rRNA inh RFP = -0.5
> CCN(CCCNC(=O)CNC(=O)c1nn(-c2ccc(OC)c(OC)c2)c(=O)c2ccccc12)c1ccccc1
  Bfl-1 A1 inh = -2.0
  B2AR ag = 9
  Ecoli rRNA inh OD600 = 11
  LANA-H2A inh = 0.2
  Ecoli rRNA inh = 17
  Calb FLC = -4
  Beta cell apopt = -1
  ALR H2O2 inh = 50
  T cruzi repl = 8
  Ecoli rRNA inh RFP = 2.7

(listing goes on)
Molecule	Bfl-1 A1 inh	B2AR ag	Ecoli rRNA inh OD600	LANA-H2A inh	Ecoli rRNA inh	Calb FLC	Beta cell apopt	ALR H2O2 inh	T cruzi repl	Ecoli rRNA inh RFP
Cc1cccc(Nc2nc(N)c([N+](=O)[O-])c(NCc3ccco3)n2)c1	-0.3	-12	-65	-3.1	-40	20	8	3	19	-14
N#C/C(=N\Nc1ccccc1F)c1nc(-c2ccccc2)cs1	-0.2	-1	19	0.0	21	2	13	-6	-15	3.4
CCOc1ccccc1-n1c(SCC(N)=O)nnc1-c1ccc(O)cc1	0.2	2	nt	-5.7	nt	14	-5	43	6	nt
Cc1cc(C(=O)NCc2cc(C(=O)O)co2)co1	1.0	-5	21	2.1	23	1	-2	-5	-6	1.4
CN(CCc1cn[nH]c1)C(=O)C1CCC(=O)N(CC2CCCCC2)C1 (centres undefined)	nt	-3	11	nt	13	8	nt	nt	-6	1.8
COCCn1c(SCc2cc(=O)n3ccsc3n2)nnc1-c1ccncc1	2.1	-11	6	-0.3	7	7	-5	-5	-11	-2.1
CCC(C)Nc1nc(C)nc2c1oc1ccccc12 (centres undefined)	-0.2	6	-20	-0.5	-17	-10	-11	11	-18	-3.9
CN(C)S(=O)(=O)c1cccc(NC(=O)COc2ccc(C(=O)c3ccccc3)cc2)c1	-0.2	-4	-15	4.0	-13	24	2	nt	-13	4.2
CNC(=S)N/N=C/c1ccc(OCc2ccccc2)c(Br)c1	-0.3	1	nt	-0.5	nt	4	-3	42	2	nt
C=CCn1c(C)cc(C(=O)COc2nncc3ccccc23)c1C	-0.8	3	nt	1.4	nt	-5	16	55	26	nt
Cc1cc(Oc2ccc([N+](=O)[O-])cc2)nc(N2CCOCC2)n1	0.2	1	-13	5.7	-1	2	-9	nt	-2	-3.7
Cc1cccc(Cc2nnc(CCC(=O)NCc3ccncc3C)o2)c1	0.9	-1	7	-11	15	1	-6	1	9	-0.5
CC(=O)N(c1cccc(Br)c1)C1C=CS(=O)(=O)C1 (centres undefined)	-0.2	5	nt	-1.3	nt	-5	-8	-2	-6	nt
CSc1nncc(=O)[nH]1	1.4	-1	nt	-0.6	nt	-10	-9	-4	nt	nt
COc1ccccc1NC(=O)Cn1nnc(C(=O)NCCc2ccccc2)c1N	-0.1	0	nt	0.0	nt	-3	-3	-21	-3	nt
COc1ccc(-c2[nH]c(-c3ccc(Cl)cc3)nc2SCC(=O)Nc2nccs2)cc1	0.2	-4	-45	-0.3	-16	36	29	94*	26	9.8
Cc1cccc(-n2ncc(Cl)c(Cl)c2=O)c1	0.5	24	-4	-0.4	-16	9	-37	8	66*	-11
CC(C)(C)N1C(=O)c2ccccc2NC(=O)N1Cc1ccc(Br)cc1	-0.3	6	nt	3.8	nt	-20	-4	nt	11	nt
COc1cccc(-c2cc3nc(-c4ccccc4)cc(N4CCC5(CC4)OCCO5)n3n2)c1	1.6	-4	11	-0.7	16	11	6	17	55*	2.0
COCCOC(=O)C1=C(C)NC2=C(C(=O)CCC2)C1c1ccc(N(C)C)cc1 (centres undefined)	-0.1	-1	nt	0.5	nt	-4	-3	100*	-5	nt
CC(O)(CS(=O)(=O)Cc1ccccc1)C(=O)Nc1ccc(C(F)(F)F)cc1 (centres undefined)	1.2	4	nt	2.2	nt	-41	-2	1	14	nt
CC(=O)C1=C(O)C(=O)N(CCCN2CCOCC2)C1c1ccccc1[N+](=O)[O-] (centres undefined)	-0.9	nt	nt	-0.3	nt	-2	0	-47	5	nt
O=C(CN1CCCCC1)Nc1cccc(-n2cnnn2)c1	-0.5	-3	nt	2.2	nt	-6	nt	0	-15	nt

From PubChem

Not all compounds are listed; count on the stated rates, not on these rows.
